Vaccinia inh: Vaccinia orthopox stage-specific inhibition; Vaccinia-infected cells, mCherry/Venus stage reporter fluorescence; hits give low values; some inactives read as strong as hits; activity change (mCherry), % (no concentration beside the values); hit rate 0.01% among 89,000;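 active means mCherry past -33% and 40 or more points under the early reporter, replicates agreeing; inconclusive means past -33% without that gap or agreement; tested in A549 cells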;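 further: scaled between vehicle wells and reference inhibitor wells; 23 nL library stock went into each well; one replicate is shown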
Vaccinia inh Venus: also measured in Vaccinia inh; calls as there; activity change (Venus), %; measured here: Venus reporter, other viral stage;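 negative = less Venus signal; first of two replicates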
The depositor's hits bear a star; u = inconclusive; x = not tested or not shown.

Value order – Vaccinia inh	Vaccinia inh Venus
O=C(Cc1ccncc1)NCC[C@@H]1CC[C@@H](NS(=O)(=O)c2ccccc2Cl)[C@H](CO)O1
    -5	4
C[C@@H]1CN([C@H](C)CO)C(=O)c2cc(/C=C/c3ccccc3)cnc2O[C@H]1CN(C)C(=O)c1cnccn1
    12	-4
COc1ccccc1-c1ccc([C@@H]2[C@@H](CO)N(C(C)=O)C23CN(C(C)=O)C3)cc1
    1	7
CO[C@@H]1CN(C)C(=O)c2cc(NC(=O)C3CC3)ccc2OC[C@@H](C)N(C(C)=O)C[C@@H]1C
    6	6
C[C@@H]1CCCCO[C@@H](CN(C)C(=O)C2CCCCC2)[C@@H](C)CN([C@@H](C)CO)C(=O)c2cc(NC(=O)c3ccncc3)ccc2O1
    5	12
C[C@@H]1CN([C@H](C)CO)C(=O)c2cc(NC(=O)Cc3ccccc3)ccc2O[C@H]1CN(C)S(C)(=O)=O
    6	2
COc1cccc(NC(=O)N(C)C[C@H]2OCc3cnnn3CCCC(=O)N([C@H](C)CO)C[C@@H]2C)c1
    4	5
CCCNC(=O)N(C)C[C@H]1Oc2ncc(C#CC3(O)CCCC3)cc2C(=O)N([C@H](C)CO)C[C@@H]1C
    8	6
OC[C@H]1[C@@H](c2ccccc2)C2(CN(Cc3ccccn3)C2)N1Cc1cncnc1
    7	10
C[C@H]1CN([C@@H](C)CO)C(=O)CCCn2cc(nn2)CO[C@@H]1CN(C)C(=O)c1cc(-c2ccccc2)on1
    6	8
CO[C@H]1CN(C)C(=O)c2ccc(NC(=O)c3ccccc3F)cc2OC[C@@H](C)N(CC2CC2)C[C@H]1C
    1	11
CC(C)NC(=O)Nc1cccc2c1O[C@H](CN(C)C(=O)Nc1ccc(F)cc1)[C@@H](C)CN([C@H](C)CO)C2=O
    9	5
C[C@H](CO)N1C[C@H](C)[C@H](CN(C)Cc2ccc(Cl)c(Cl)c2)Oc2ccc(NS(C)(=O)=O)cc2CC1=O
    -29	-19
C[C@@H]1CN([C@H](C)CO)C(=O)c2cc(C#CC(C)(C)O)cnc2O[C@@H]1CN(C)C(=O)C1CCC1
    24	12
O=C(C1CCCC1)N1CCCCN2[C@H](C1)[C@H](c1ccc(-c3cccc(F)c3)cc1)[C@@H]2CO
    u	x
C[C@@H]1CN([C@H](C)CO)C(=O)c2cc(NC(=O)Nc3ccccc3)ccc2O[C@@H]1CN(C)Cc1ccc2c(c1)OCO2
    -22	-14
COc1ccc(NC(=O)N2C[C@@H](O)COC[C@H]3O[C@@H](CC(=O)N4CCCCC4)CC[C@@H]32)cc1
    9	5
CC(C)NC(=O)N(C)C[C@H]1Oc2ncc(C#CCC3CCCC3)cc2C(=O)N([C@@H](C)CO)C[C@H]1C
    -12	-11
C[C@@H]1CN([C@H](C)CO)C(=O)Cc2cc(NS(=O)(=O)c3ccccc3)ccc2O[C@@H]1CN(C)C(=O)Nc1ccccc1
    14	5
O=C(CN1CCOCC1)N[C@@H]1CC[C@@H](CCNS(=O)(=O)c2ccccc2F)O[C@H]1CO
    0	0
CNC[C@H]1OCCCC[C@H](C)Oc2ccc(NS(=O)(=O)c3ccc(OC)cc3)cc2C(=O)N([C@@H](C)CO)C[C@H]1C
    15	8
COc1ccccc1-c1cnc2c(c1)C(=O)N([C@@H](C)CO)C[C@H](C)[C@@H](CN(C)Cc1cncnc1)O2
    7	4
CO[C@H]1CN(C)C(=O)c2ccc(NC(=O)Nc3ccc(Cl)cc3)cc2OC[C@H](C)N(C(=O)Nc2c(C)noc2C)C[C@H]1C
    -20	-13
CNC[C@H]1Oc2c(NC(=O)c3ccc(-c4nccs4)cc3)cccc2C(=O)N([C@H](C)CO)C[C@@H]1C
    -5	6
C[C@@H]1CN([C@H](C)CO)C(=O)c2cc(C#CCN(C)C)cnc2O[C@@H]1CN(C)Cc1ccc(-c2ccccc2)cc1
    -33	-20
Cc1noc(C)c1S(=O)(=O)Nc1ccc2c(c1)C(=O)N([C@@H](C)CO)C[C@@H](C)[C@@H](CN(C)C(=O)Nc1cccc3ccccc13)OCCCC[C@@H](C)O2
    -17	-18
O=C(C[C@@H]1CC[C@@H]2[C@H](COC[C@H](O)CN2C(=O)Nc2ccccc2)O1)NCCc1ccncc1
    7	-1
C[C@H](CO)N1C[C@H](C)[C@@H](CN(C)Cc2ccc(Oc3ccccc3)cc2)Oc2ccc(NC(=O)CCN3CCOCC3)cc2CC1=O
    -29	-25
CCC(=O)Nc1ccc2c(c1)C(=O)N(C)C[C@H](OC)[C@H](C)CN(Cc1ccccc1)[C@H](C)CO2
    -6	9
C/C=C/c1ccc([C@H]2[C@@H](CO)N(C(C)=O)[C@@H]2CN(CCOC)C(C)=O)cc1
    1	1

For convenience, 2 of the compounds above:
Value order – Vaccinia inh	Vaccinia inh Venus
CO[C@@H]1CN(C)C(=O)c2cc(NC(=O)C3CC3)ccc2OC[C@@H](C)N(C(C)=O)C[C@@H]1C
    6	6
C[C@@H]1CCCCO[C@@H](CN(C)C(=O)C2CCCCC2)[C@@H](C)CN([C@@H](C)CO)C(=O)c2cc(NC(=O)c3ccncc3)ccc2O1
    5	12

Next compounds follow.
Value order – Vaccinia inh	Vaccinia inh Venus
COc1ccc(C(=O)Nc2ccc3c(c2)C(=O)N(C)C[C@H](OC)[C@H](C)CN(C(C)=O)[C@H](C)CO3)cc1
    -4	-5
C[C@@H]1CN([C@@H](C)CO)C(=O)c2cc(NC(=O)Nc3ccc(C(F)(F)F)cc3)ccc2O[C@@H]1CN(C)C(=O)Nc1ccc(F)cc1
    -25	-15
CCC(=O)N1[C@H](CO)[C@H]2c3ccccc3N(S(=O)(=O)c3ccccc3)C[C@H]21
    -5	3
O=C(C[C@H]1CC[C@@H](NC(=O)Cc2cccnc2)[C@@H](CO)O1)Nc1ccc(-c2ccccc2)cc1
    -15	-16
Cc1ccc(S(=O)(=O)N[C@H]2C=C[C@H](CC(=O)N3CCc4ccccc4C3)O[C@@H]2CO)cc1
    -9	-4
COc1ccccc1NC(=O)N(C)C[C@@H]1Oc2cc(Br)ccc2S(=O)(=O)N([C@@H](C)CO)C[C@H]1C
    -27	-14
COc1ccc(S(=O)(=O)N(C)C[C@H]2Oc3c(NS(=O)(=O)c4cccs4)cccc3C(=O)N([C@@H](C)CO)C[C@@H]2C)cc1
    7	1
C[C@H](CO)N1C[C@H](C)[C@H](CN(C)C(=O)Nc2ccc3c(c2)OCO3)Oc2ccc(NS(=O)(=O)c3ccc(Cl)cc3)cc2C1=O
    14	4
C[C@H](CO)N1C[C@H](C)[C@@H](CN(C)Cc2ccc(C(=O)O)cc2)Oc2ccc(NC(=O)Nc3ccc(F)cc3)cc2CC1=O
    4	6
CO[C@H]1CN(C)C(=O)c2ccc(NC(=O)C3CCCC3)cc2OC[C@H](C)N(C)C[C@@H]1C
    17	12
COc1ccc(NC(=O)Nc2ccc3c(c2)[C@H]2C[C@@H](CC(=O)NCC(F)(F)F)O[C@@H](CO)[C@H]2O3)cc1
    7	7
C[C@@H]1CCCCO[C@H](CN(C)Cc2ccc3c(c2)OCO3)[C@@H](C)CN([C@H](C)CO)C(=O)c2cc(NC(=O)NC3CCCCC3)ccc2O1
    -18	-13
COC(=O)CCCCCCC(=O)NOCc1ccccc1
    18	14
C[C@H](CO)N1C[C@H](C)[C@H](CN(C)S(=O)(=O)c2ccccc2)OCCCC[C@H](C)Oc2ccc(NC(=O)Nc3ccc(F)cc3)cc2C1=O
    -3	-2
Cc1ccc(S(=O)(=O)N[C@H]2CC[C@H](CC(=O)NC3CCCCC3)O[C@@H]2CO)cc1
    -9	2
CN(C)C(=O)c1ccc(-c2ccc3c(c2)[C@H]2[C@H](CCN2C(=O)C2CC2)[C@H](CO)N3C)cc1
    4	-5
O=C(c1ccccc1F)N1CC[C@@H]2[C@@H](CO)Nc3ccc(-c4ccccc4)cc3[C@@H]21
    u	x
Cc1ccc(S(=O)(=O)Nc2ccc3c(c2)C(=O)N([C@H](C)CO)C[C@H](C)[C@H](CN(C)C(=O)CCC(F)(F)F)OCCCC[C@H](C)O3)cc1
    -25	-18
C[C@@H]1CN([C@H](C)CO)S(=O)(=O)c2ccc(C#C[C@@H](C)O)cc2O[C@@H]1CN(C)Cc1ccc(-c2ccccc2)cc1
    u	x
C[C@H](O)C#Cc1ccc2c(c1)O[C@H](CN(C)C(=O)CN(C)C)[C@H](C)CN([C@H](C)CO)S2(=O)=O
    21	21
O=C(Nc1ccccc1)N[C@@H]1CC[C@H](CCNC(=O)c2ccccc2F)O[C@@H]1CO
    -3	-3
CO[C@H]1CN(C)C(=O)c2ccc(NC(=O)Nc3ccccc3)cc2OC[C@@H](C)NC[C@@H]1C
    12	6
CO[C@H](CN(C)Cc1cc(F)ccc1F)[C@@H](C)CN([C@H](C)CO)S(=O)(=O)c1ccc(F)cc1
    -10	-8
O=C(Nc1cccc(F)c1)N[C@@H]1CC[C@H](CCNS(=O)(=O)c2cccc(Cl)c2)O[C@@H]1CO
    -28	-10
C[C@H]1CN([C@@H](C)CO)C(=O)Cc2cc(NC(=O)NC3CCCCC3)ccc2O[C@H]1CN(C)S(C)(=O)=O
    10	-2
O=C(NC[C@@H]1CC[C@H]2[C@H](CN2C(=O)C2CCOCC2)O1)c1cccnc1
    9	6
COCC(=O)N(C)C[C@@H]1Oc2ncc(/C=C/c3ccccc3)cc2C(=O)N([C@@H](C)CO)C[C@H]1C
    1	-5
COc1ccc(-c2cn(CC[C@H]3CC[C@H](NC(=O)NC(C)C)[C@@H](CO)O3)nn2)cc1
    -14	-9
C[C@H](CO)N1C[C@H](C)[C@H](CN(C)S(C)(=O)=O)Oc2ccc(NC(=O)CCCCCC(=O)Nc3ccccc3N)cc2CC1=O
    19	10
C[C@H]1CN([C@@H](C)CO)C(=O)c2cccc(N(C)C)c2O[C@H]1CN(C)Cc1ccc(C(=O)O)cc1
    -4	-3

Profiles, quoted from the list. Values in the order: Vaccinia inh	Vaccinia inh Venus
C[C@H](O)C#Cc1ccc2c(c1)O[C@H](CN(C)C(=O)CN(C)C)[C@H](C)CN([C@H](C)CO)S2(=O)=O across the screens: 21	21
C[C@H](CO)N1C[C@H](C)[C@@H](CN(C)Cc2ccc(C(=O)O)cc2)Oc2ccc(NC(=O)Nc3ccc(F)cc3)cc2CC1=O across the screens: 4	6
C[C@@H]1CN([C@H](C)CO)C(=O)c2cc(NC(=O)Nc3ccccc3)ccc2O[C@@H]1CN(C)Cc1ccc2c(c1)OCO2 across the screens: -22	-14
C[C@@H]1CN([C@H](C)CO)C(=O)Cc2cc(NS(=O)(=O)c3ccccc3)ccc2O[C@@H]1CN(C)C(=O)Nc1ccccc1 across the screens: 14	5
CO[C@H](CN(C)Cc1cc(F)ccc1F)[C@@H](C)CN([C@H](C)CO)S(=O)(=O)c1ccc(F)cc1 across the screens: -10	-8

The listing continues.
Value order – Vaccinia inh	Vaccinia inh Venus
COc1cccc(S(=O)(=O)N[C@H]2C=C[C@@H](CC(=O)NCc3ccccc3)O[C@H]2CO)c1
    2	-5
Cc1ccc(S(=O)(=O)N(C)C[C@@H]2Oc3ccc(NS(=O)(=O)c4cccs4)cc3CC(=O)N([C@H](C)CO)C[C@@H]2C)cc1
    11	3
CN1C(=O)c2cc(NC(=O)NCc3ccccc3)ccc2OC[C@@H]2O[C@@H](CC(=O)NCC3CCCCC3)CC[C@H]21
    -14	-4
CN(C)CCCNC(=O)C[C@@H]1C=C[C@H](NS(=O)(=O)c2ccc(F)cc2)[C@@H](CO)O1
    10	8
COC(=O)C(CC#Cc1ccc2c(c1)[C@]1(C(=O)N2)[C@H](c2ccc(O)cc2)N2[C@H](c3ccccc3)[C@H](c3ccccc3)OC(=O)[C@H]2[C@@H]1C(=O)N1CCCCCCC1)C(=O)OC
    0	-5
C[C@H](CO)N1C[C@H](C)[C@H](CN(C)Cc2ccc3c(c2)OCO3)Oc2c(NC(=O)NC3CCCCC3)cccc2C1=O
    -21	-3
C[C@H](CO)N1C[C@H](C)[C@@H](CN(C)S(=O)(=O)c2cccs2)Oc2c(NC(=O)c3ccncc3)cccc2C1=O
    10	9
C[C@@H]1CN([C@@H](C)CO)S(=O)(=O)c2ccc(C#CCN(C)C)cc2O[C@@H]1CN(C)C(=O)C1CCCCC1
    -11	-3
CN1c2ccc(Br)cc2[C@@H]2[C@@H](CCN2C(=O)C2CCCCC2)[C@@H]1CO
    -4	-3
COC(=O)[C@H]1[C@H](CO)[C@H]2Cn3c(ccc(C4=CCCC4)c3=O)[C@@H]1N2Cc1ccccn1
    18	11
COc1ccc(-c2ccc3c(c2)[C@H]2[C@H](CCN2C(=O)NC2CCCC2)[C@H](CO)N3C)cc1
    -31	-29
C[C@@H]1CN([C@H](C)CO)C(=O)Cc2cc(NC(=O)CCC(F)(F)F)ccc2O[C@H]1CN(C)S(=O)(=O)c1ccccc1
    -4	-2
COc1ccc2c3c([nH]c2c1)[C@H](CO)N(S(C)(=O)=O)CC31CCN(C(=O)Cc2cccnc2)CC1
    14	9
CC(C)NC(=O)N(C)C[C@H]1Oc2ccc(NC(=O)CCC(F)(F)F)cc2C(=O)N([C@@H](C)CO)C[C@H]1C
    3	-2
Cc1noc(C)c1S(=O)(=O)Nc1ccc2c(c1)C(=O)N([C@@H](C)CO)C[C@@H](C)[C@H](CN(C)S(=O)(=O)c1ccc(F)cc1)OCCCC[C@@H](C)O2
    u	x
CCCC(=O)N1CCC2(CC1)CN(C(=O)COC)[C@@H](CO)c1c2c2ccc(OC)cc2n1C
    16	11
C[C@H]1CN([C@@H](C)CO)C(=O)CCCn2nncc2CO[C@@H]1CN(C)CC1CC1
    9	13
C[C@H](CO)N1C[C@H](C)[C@H](CN(C)Cc2ccc(C(=O)Nc3ccccc3N)cc2)Oc2c(NC(=O)Nc3ccc(C(F)(F)F)cc3)cccc2C1=O
    -14	-12
C[C@@H]1CN([C@@H](C)CO)C(=O)c2cc(NC(=O)c3ccncc3)ccc2O[C@H]1CN(C)S(=O)(=O)c1cn(C)cn1
    8	3

A portion of the library (hit frequency here may not be typical).
